Menin-MLL FL inh = menin-MLL binding inhibition, fluorescein peptide; Fluorescence polarization, fluorescein-MLL peptide displacement from menin; FP activity change, % at 61.4 µM; 290,000 tested, under 10 active; AID 1766; inconclusive = falling polarisation curve, or a change in total fluorescence; inactive = total fluorescence flat and polarisation flat or rising; no compound was filed as active; the % refers to the polarisation; negative = inhibition;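 further: % of control where 0% means no effect; inhibitors lower the polarisation; unlabelled MLL peptide was the positive control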
Sfp inh = inhibitors of Bacillus subtilis Sfp phosphopantetheinyl transferase; Q9F4F7; Biochemical Sfp PPTase activity, qHTS; Potency, µM, inactives show max response, negative = inhibition, most hits filed as inhibitors; hit rate 3.5% among 310,000; AID 1490; active means well fitted inhibition curve with a large enough effect; inconclusive means small, poorly fitted or top-dose-only effect, or another doubt; inactive means no such curve, though single readings can be large or run the other way;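 further: the enzyme is Sfp with the accession as filed and its product quenches rhodamine fluorescence; potency means the concentration at half of the fitted maximal effect; 0% = enzyme reaction without inhibitor and -100% = no enzyme wells; top concentration of the series not given in the record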
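Reaction rates are the 30-min fluorescence difference (ex 525, em 598 nm) in wells containing 15 nM Sfp, 5 uM rhodamine-CoA and 12.5 uM BHQ-2-YbbR at pH 7.6 with 10 mM MgCl2.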
Active calls of the source: *; u = inconclusive; & = joins results of further samples; ! = repeats disagree; [ ] = remark or other dose. This is a subset, so the mix of outcomes need not match the whole.

Menin-MLL FL inh	Sfp inh	Molecule
u	-18.5%	CC(C)c1ccc(C2C(C#N)=C(N)N3C(=C2C#N)Sc2ccccc23)cc1 (stereo not drawn)
-10.3	44.7µM*!	N[C@H](C(=O)O)c1ccc(C(=O)O)cc1
2.0	-17.7%	Cc1noc(C)c1-c1cncnc1Nc1ccccc1
1.7[11.7 µM]	0.8%	O=C1CCCC=C1[C@H](O)c1ccc([N+](=O)[O-])cc1
3.2	-0.5%	Cc1ccccc1
4.0	22.0%	COCCn1c(=O)c(-c2ccccc2)nc2cnc(N3CCNCC3)nc21
-1.9	-0.7%	C=C[C@]1(C)CC(=O)[C@@]2(O)[C@@]3(C)C(O)CCC(C)(C)C3C(O)C(OC(C)=O)[C@@]2(C)O1 (stereo partly drawn)
-9.5	-1.5%	CSCC[C@H](NC(=O)[C@H](CC(C)C)NC(=O)CNC(=O)[C@H](Cc1ccc(O)cc1)NC(=O)[C@H](Cc1ccccc1)NC(=O)[C@H](CCC(N)=O)NC(=O)[C@H](CCC(N)=O)NC(=O)[C@@H]1CCCN1C(=O)[C@H](CCCCN)NC(=O)[C@@H]1CCCN1C(=O)[C@@H](N)CCCN=C(N)N)C(N)=O
-0.9	-19.1%	C=C(C(C)=O)C(O)c1ccccc1 (stereo not drawn)
-11.4	18.8%&-11.4%	CCCCC(C)(O)C/C=C/[C@H]1[C@H](O)CC(=O)[C@@H]1CCCCCCC(=O)O (stereo partly drawn)
2.5	33.0%[activator]	CCCn1c(C)nc2c(NCCCCN3CCCC3)nc(C)nc21
1.7	19.0%	C[C@@H](C(=O)Nc1ccc2ccccc2c1)[C@@H]1C[C@@]1(C)[C@@H](NC(=O)Oc1ccc(F)cc1)c1ccccc1
0.0	-17.3%	c1nc(NCCN2CCOCC2)c2cc(-c3ccc4c(c3)OCO4)ccc2n1
2.4	29.0%	COc1ccc(-c2nc3cnc(N4CCNCC4)nc3n(C3CC3)c2=O)cc1
6.9	11.6%	COc1ccc(-c2oc3cc(OC)ccc3c2C(=O)c2ccc(C#N)cc2)cc1
0.1	4.0%	CC(=O)N1CCC2(CC1)CCN(C(c1ccccc1)c1ccccc1)CC2
0.4	0.5%	CN1CCN(c2ncc3nc(-c4cc(F)cc(F)c4)c(=O)n(Cc4cccs4)c3n2)CC1
0.9[11.7 µM]	3.6%	CC(=O)OC[C@@H]1O[C@@H](O/N=C2/C[C@@H](O)[C@@H](O)[C@@H]3[C@@H]4C(=O)N(c5cccc(Oc6ccccc6)c5)C(=O)[C@H]4CC[C@@H]23)[C@H](OC(C)=O)[C@H](OC(C)=O)[C@@H]1OC(C)=O
-0.5	-7.8%	COC(=O)N[C@@H](/C=C/c1ccccc1)[C@@H](C)[N+](=O)[O-]
-2.4	8.0%	CCCCCCCC/C=C\CCCCCCCC(=O)NC(C)C(=O)O (stereo not drawn)
6.9	-10.4%	CCOc1ccc(N=Nc2ccc(N)cc2N)cc1
1.6[24.8 µM]	12.7%	CN[C@@H](CC(C)C)C(=O)N[C@@H]1C(=O)N[C@H](CC(N)=O)C(=O)N[C@@H]2C(=O)N[C@H]3C(=O)N[C@H](C(=O)N[C@H](C(=O)O)c4cc(O)cc(O)c4-c4cc3ccc4O)[C@H](O)c3ccc(c(Cl)c3)Oc3cc2cc(c3O[C@H]2O[C@@H](CO)[C@@H](O)[C@@H](O)[C@@H]2O[C@@H]2C[C@](C)(N)[C@H](O)[C@H](C)O2)Oc2ccc(cc2Cl)[C@@H]1O
2.1	-8.5%	COC(=O)C(C(=O)OC)C(Cc1cc(F)cc(F)c1F)NC=O (stereo not drawn)
0.4[11.7 µM]	-7.8%	CCCCCCC1=Cc2cc(OC)c(OC)cc2C(C(C(C)=O)C(=O)OCC)O1 (stereo not drawn)
-4.2	-1.4%	COc1cccc(-c2ccc3ncnc(NCCc4c[nH]c5ccc(OC)cc45)c3c2)c1
-0.8[94.6 µM]	9.3%	Cc1ccc(C2CC(=O)Oc3c(C(C)C)ccc(C)c32)cc1 (stereo not drawn)
6.7	-18.3%	CC(C)(C)OC(=O)NCCCCC1=CC2=CC(=O)C(C)(OC(=O)c3cnc4ccccc4n3)C(=O)C2=CO1 (stereo not drawn)
-0.2	22.6%&0.5%	CCCCCCCCCCCCC(O)C(=O)O (stereo not drawn)
153.5[activator]	28.2µM*	C[C@](N)(C(=O)O)c1ccc(-c2nn[nH]n2)cc1
12.8	-12.4%	COc1cccc(Cn2c(=O)cnc3cnc(Nc4cccc(OC)c4)nc32)c1

Full records, looked up by structure:
Entry for CCCCCCCCCCCCC(O)C(=O)O (stereo not drawn) = Menin-MLL FL inh = -0.2; Sfp inh = 22.6%&0.5%
Entry for C[C@](N)(C(=O)O)c1ccc(-c2nn[nH]n2)cc1 = Menin-MLL FL inh = 153.5[activator]; Sfp inh = 28.2µM*

An excerpt from above in order of count of non-hydrogen atoms, lowest first.
Menin-MLL FL inh	Sfp inh	Molecule
-0.5	-7.8%	COC(=O)N[C@@H](/C=C/c1ccccc1)[C@@H](C)[N+](=O)[O-]
0.4[11.7 µM]	-7.8%	CCCCCCC1=Cc2cc(OC)c(OC)cc2C(C(C(C)=O)C(=O)OCC)O1 (stereo not drawn)
1.6[24.8 µM]	12.7%	CN[C@@H](CC(C)C)C(=O)N[C@@H]1C(=O)N[C@H](CC(N)=O)C(=O)N[C@@H]2C(=O)N[C@H]3C(=O)N[C@H](C(=O)N[C@H](C(=O)O)c4cc(O)cc(O)c4-c4cc3ccc4O)[C@H](O)c3ccc(c(Cl)c3)Oc3cc2cc(c3O[C@H]2O[C@@H](CO)[C@@H](O)[C@@H](O)[C@@H]2O[C@@H]2C[C@](C)(N)[C@H](O)[C@H](C)O2)Oc2ccc(cc2Cl)[C@@H]1O

(continued)
Menin-MLL FL inh	Sfp inh	Molecule
-3.5	10.1%	C=CCC(C)(O)C#Cc1ccccc1 (stereo not drawn)
-4.5	20.8%	CC(C)NC(=O)N1CCCC2(CCN(C(=O)c3cccc(F)c3)CC2)C1
7.7	9.3%	Cc1noc(C)c1C(=O)N1CCC2(CCCN(C(=O)Nc3cccc(F)c3)C2)CC1
-1.7	8.8%	CC(C)=CCCC1=CC[C@H](C(=O)O)[C@H](C(=O)O)C1
0.0	-15.3%&6.5%	C=CC(=O)N1C(=O)c2ccccc2S1(=O)=O
-0.6[24.8 µM]	6.3%	O=C1OCCN1/N=C\c1ccc([N+](=O)[O-])o1
-0.6	5.9%	NC(Cn1ccc(=O)c(O)c1)C(=O)O (stereo not drawn)
0.0	-0.1%	CC(C)C(C)/C=C/C(C)C1CCC2C3=CCC4CC(=O)CC[C@@]4(C)C3CC[C@]21C (stereo partly drawn)
12.7	24.6%	CCNc1ncc2nc(-c3ccc(Cl)cc3)c(=O)n(CCC#N)c2n1
-4.6[11.7 µM]	6.8%	CC(C)=CCC/C(C)=C/CO/N=C1/C[C@@H](O)[C@@H](O)[C@@H]2[C@@H]3C(=O)N(C4CCCCC4)C(=O)[C@H]3CC[C@@H]12
-7.2	29.7%	CC(=O)N1CC=CC1(CC(C)C)C(=O)NCc1ccccn1 (stereo not drawn)
-2.3	8.8%	CC(=O)N1CCC2(CC1)CN(C(=O)Nc1cccc(C#N)c1)C2
2.2	-0.3%	CC(=O)OC1C[C@@]2(C)C(c3ccoc3)OC(=O)C3O[C@@]32[C@]2(C)C(OC(C)=O)CC3C(C)(C)C(OC(C)=O)CC(OC(C)=O)[C@@]3(C)C12 (stereo partly drawn)
-5.9	16.3%	COc1ncc2nc(CCc3ccccc3)c(=O)n(CCC#N)c2n1
-1.9	5.8%	CCCn1c(-c2ccc(F)cc2)nc2c(NCC3CCCN3CC)nc(C)nc21 (stereo not drawn)
-3.5&2.1	-6.5%&7.6%	CC(=O)Oc1cc(OC(C)=O)c2c(c1)OC(c1ccc(OC(C)=O)c(OC(C)=O)c1)C(OC(C)=O)C2 (stereo not drawn)
0.7	8.2%	O=C(Nc1ccccc1)N1CCC2(CC1)CCN(C(=O)c1cccc(F)c1)CC2
-2.5&-1.2	15.1%&12.7%&9.1%	CCCCCCCCCCCCCCCCCCOC[C@H](COP(=O)([O-])OCC[N+](C)(C)C)OC
0.4	12.0%	COc1ccc(-n2c(=O)c(-c3ccc(Cl)cc3)nc3cncnc32)cc1
1.4&11.3	50.1µM*	NC1(C(=O)O)CC(C(=O)O)C1 (stereo not drawn)
1.5	-12.7%	O=C(Nc1ccc([N+](=O)[O-])cc1O)Nc1ccccc1Br
-1.9	-18.5%	CCCCCCCCCCCCCCCCOC[C@H](COP(=O)([O-])OCC[N+](C)(C)C)OC(=O)CCCCCCCC(=O)O
u	u	CCN(CC)C(=O)/C(C#N)=C/c1cc(O)c(O)c([N+](=O)[O-])c1
-10.0	-1.4%	O=C(Nc1ccc(O)cc1)c1ccccc1O
-2.6[11.7 µM]	5.1%	CC(=O)c1ccc(OC2C=CC(C#Cc3ccc(Br)cc3)OC2CO)cc1 (stereo not drawn)
0.1	-0.7%	COc1cccc(-c2ccc3ncnc(NC4CCNCC4)c3c2)c1
1.3	16.6%	CCCC1CC(C(=O)N[C@H](C(C)O)C2OC(SC)[C@@H](O)C(O)C2O)N(C)C1 (stereo partly drawn)
u	-22.0%	COCC(=O)N1CCC2(CCCN(c3cccc(-c4ccccc4)c3)C2)CC1
0.3	5.5%	CC(C)C[C@@H](CC(=O)N[C@@H](CCCN)CC(=O)N[C@@H]1CCCC[C@H]1C(=O)N[C@H](CC(=O)N[C@@H](CCC(=O)O)CC(=O)O)Cc1c[nH]c2ccccc12)NC(=O)[C@@H]1CCCC[C@H]1N
-5.1	5.0%	CCCCCCCCCCCC
1.9	13.3%	CCC(=O)OC1C(N(C)C)CC(C)O[C@H]1O[C@H]1[C@H](C)[C@@H](O[C@H]2CC(OC)[C@@H](O)C(C)O2)[C@H](C)C(=O)O[C@@H](CC)[C@](C)(O)[C@@H](O)[C@H](C)C(=O)[C@@H](C)C[C@]1(C)O (stereo partly drawn)
-1.5	14.3%	CC(C)C[C@H](NC(=O)[C@@H](Cc1c[nH]c2ccccc12)NC(=O)[C@@H](Cc1ccc(O)cc1)NC(=O)[C@@H](CO)NC(=O)[C@@H](Cc1c[nH]c2ccccc12)NC(=O)C(Cc1cnc[nH]1)NC(=O)C1CCC(=O)N1)C(=O)N[C@@H](CCCN=C(N)N)C(=O)N1CCC[C@@H]1C(=O)NCC(N)=O (stereo partly drawn)
-1.4[24.8 µM]	26.5%	Nc1ccn([C@@H]2CC[C@H](CO)O2)c(=O)n1
-3.1	-0.3%	COCC(=O)N1CCC2(CCCN(C(=O)Nc3cccc(F)c3)C2)CC1
-9.3	-17.5%	C=CCC(C)(Nc1ccccc1)C(=O)OCC (stereo not drawn)
4.5[11.7 µM]	15.6%	COc1ccc(COC(=O)N/N=C2/C[C@@H](O)[C@@H](O)[C@@H]3[C@@H]4C(=O)N(C(C)(C)C)C(=O)[C@H]4CC[C@@H]23)cc1
-1.2	0.6%	COCOc1ccc(OC)cc1C(=O)C1O[C@H]1c1ccc(OC)c(Br)c1 (stereo partly drawn)
0.8	11.2%	CC(C)OC(=O)[C@@H]1C=C[C@H](C)[C@@H](CCCCOCc2ccccc2)O1
-6.7	-13.7%	N#Cc1ccc(NCCNCC(=O)N2N=CCC2C#N)nc1 (stereo not drawn)
1.4	8.9%&11.9%	CCCCC[C@H](O)/C=C/[C@H]1C=CC(=O)[C@@H]1CCCCCCC(=O)O
-0.9[11.7 µM]	-0.6%	Cc1cc2c(nc1C)CCCCN2C[C@H](C)O/N=C1/[C@H]2O[C@@H]2[C@@H](O)[C@H]2[C@H]1CCn1c(=O)n(-c3ccccc3)c(=O)n12
-0.9[24.8 µM]	17.4%	Clc1cnccn1
-6.2	11.6%	O=c1c(CCc2ccccc2)nc2cnc(N3CCOCC3)nc2n1C[C@H]1CCCO1
u	5.9%	CC(C)CN1CCCC2(CCN(C(=O)c3cc(C(F)(F)F)cc(C(F)(F)F)c3)CC2)C1
-16.3	17.1%	CN(C)c1ncc2nc(-c3cccc(C#N)c3)c(=O)n(C[C@H]3CCCO3)c2n1

Filtered by structure: those above with a tert-butyl group.
Menin-MLL FL inh	Sfp inh	Molecule
6.7	-18.3%	CC(C)(C)OC(=O)NCCCCC1=CC2=CC(=O)C(C)(OC(=O)c3cnc4ccccc4n3)C(=O)C2=CO1 (stereo not drawn)
4.5[11.7 µM]	15.6%	COc1ccc(COC(=O)N/N=C2/C[C@@H](O)[C@@H](O)[C@@H]3[C@@H]4C(=O)N(C(C)(C)C)C(=O)[C@H]4CC[C@@H]23)cc1

(continued)
Menin-MLL FL inh	Sfp inh	Molecule
-4.2	-10.4%	NC(=O)Nc1sc(-c2ccc(F)cc2)cc1C(N)=O
1.6[11.7 µM]	-20.3%	COC(=O)[C@@H]1CC[C@H](C)[C@@H](c2ccc(C)cc2)N1C(=O)c1ccc(/C=N\OC[C@@H](C)[C@H](OCc2ccccc2)C(C)C)cc1
-0.2	1.8%	Cc1ccccc1-c1ccc2ncnc(NC3CC3)c2c1
2.9	20.1%	CCCC/C=C/C(NC(=O)C(C)(C)C)c1ccccc1 (stereo not drawn)
u	-15.2%&6.4%&-16.8%	CCOC(=O)C1=C(N)Oc2ccc(Br)cc2C1C(C#N)C(=O)OCC (stereo not drawn)
6.2	2.1%	O=C(O)CN(CCOCCOCCN(CC(=O)O)CC(=O)O)CC(=O)O
-0.7	5.7%	CC(C)C[C@H](NC(=O)[C@@H]1CCCN1C(=O)[C@H](CO)NC(=O)[C@H](Cc1ccccc1)NC(=O)CNC(=O)[C@@H]1CCCN1C(=O)[C@@H]1CCCN1C(=O)[C@@H](N)CCCN=C(N)N)C(=O)O
